Source: PubChem (National Center for Advancing Translational Sciences (NCATS))
Sfp PPTase inh – blocks B. subtilis Sfp PPTase activity. Q9F4F7. Biochemical Sfp PPTase activity, qHTS. Potency, µM, without a hit: max response, negative = inhibition, actives largely listed as inhibitors. 3.5% of 310,000 active. AID 1490; active = well fitted inhibition curve with a large enough effect; inconclusive = small, poorly fitted or top-dose-only effect, or another doubt; inactive = no such curve, though single readings can be large or run the other way;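 also: the enzyme is Sfp with the accession as filed and its product quenches rhodamine fluorescence; potency is read from the fitted curve at half-maximal effect; 0% = enzyme reaction without inhibitor and -100% = no enzyme wells; top concentration of the series not given in the record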
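Fluorescence-quenching assay: 15 nM Sfp-PPTase preincubated 15 min at room temperature with compound, then 5 uM rhodamine-CoA and 12.5 uM BHQ-2-labelled YbbR peptide added. Fluorescence (ex 525/em 598 nm) read at start and after 30 min; difference gives rate.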
gsp antag – gsp mutant antagonism; gsp-mutant cells, cAMP HTRF, 30 min; control for the full effect not named in the record; Potency, µM (series often up to 76.9 µM), for inactives: at the top dose activity change, negative = inhibition, usual class: inhibitors; 0.4% of 340,000 active; AID 624288; active = falling curve of any shape with a large fitted effect; inconclusive = falling curve, mostly with a smaller effect; inactive = flat or rising curve; cell line not stated here;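 also: intracellular cAMP measured with PDE inhibitor Ro 20-1724 present during compound exposure; potency is read from the fitted curve at half-maximal effect; % is scaled to controls: 0 for no effect and ±100 for the full control effect; nearly all actives have a fitted effect of over 65% in size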
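Measurement of cellular cAMP by homogeneous time-resolved fluorescence following a 30 min compound exposure at 37C. The PDE inhibitor […] was present throughout; the assay buffer was DPBS with 0.05% BSA and 0.005% Tween 20.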
ClpP mod – qHTS Assay for Activators of ClpP; ATP-dependent Clp protease proteolytic subunit (Bacillus subtilis (strain 168)), P80244; purified B. subtilis ClpP, FRET peptide cleavage, 20 min; Potency, µM (doses to about 57.5 µM), inactives show at the highest dose activity change, negative = active; 1.9% of 340,000 active; active = well fitted falling curve with a large enough effect; inconclusive = small, poorly fitted or top-dose-only effect; inactive = no such curve, though single readings can be large or run the other way; also: potency is read from the fitted curve at half-maximal effect; the source files actives as falling curves though it sought activators and does not explain the sign; nearly all actives have a fitted effect of over 65% in size; many hits overshoot -100%
Target sequence (P80244 whole entry, looked up): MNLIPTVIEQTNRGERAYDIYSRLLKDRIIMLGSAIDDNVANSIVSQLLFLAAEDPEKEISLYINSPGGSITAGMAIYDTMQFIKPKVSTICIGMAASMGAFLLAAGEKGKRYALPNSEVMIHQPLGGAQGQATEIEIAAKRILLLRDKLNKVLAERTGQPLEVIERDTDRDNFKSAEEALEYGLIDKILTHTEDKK
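ClpP 10 microg/mL final, pH 8 Tris/KCl buffer with BSA, glycerol, Tween-20; compound pinned in; FRET-FV substrate; RT 20 min; Ex320/Em430; ΔFRET vs ADEP 5.8 microM, DMSO, no enzyme.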
Menin-MLL FL inh – menin-MLL binding inhibition, fluorescein peptide | Fluorescence polarization, fluorescein-MLL peptide displacement from menin | FP activity change, % at 61.4 µM | 290,000 tested, under 10 active | AID 1766; inconclusive = falling polarisation curve, or a change in total fluorescence; inactive = total fluorescence flat and polarisation flat or rising; no compound was filed as active; the % refers to the polarisation; negative = inhibition;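 also: % of control where 0% means no effect; inhibitors lower the polarisation; unlabelled MLL peptide was the positive control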
TRPV1 PAM – enhances activation of the human vanilloid receptor TRPV1. Q8NER1. TRPV1-expressing cells, Fluo-8 calcium influx, capsaicin EC20 potentiation; host cell line not named in the record; control for the full effect not named in the record. potentiation, % at 8.33 µM. 0.02% of 320,000 active. AID 540277; active means potentiation above 80%; inconclusive means 30% to 80%; inactive means below 30%; also: 0% is about no effect
Target sequence (Q8NER1 whole entry, looked up): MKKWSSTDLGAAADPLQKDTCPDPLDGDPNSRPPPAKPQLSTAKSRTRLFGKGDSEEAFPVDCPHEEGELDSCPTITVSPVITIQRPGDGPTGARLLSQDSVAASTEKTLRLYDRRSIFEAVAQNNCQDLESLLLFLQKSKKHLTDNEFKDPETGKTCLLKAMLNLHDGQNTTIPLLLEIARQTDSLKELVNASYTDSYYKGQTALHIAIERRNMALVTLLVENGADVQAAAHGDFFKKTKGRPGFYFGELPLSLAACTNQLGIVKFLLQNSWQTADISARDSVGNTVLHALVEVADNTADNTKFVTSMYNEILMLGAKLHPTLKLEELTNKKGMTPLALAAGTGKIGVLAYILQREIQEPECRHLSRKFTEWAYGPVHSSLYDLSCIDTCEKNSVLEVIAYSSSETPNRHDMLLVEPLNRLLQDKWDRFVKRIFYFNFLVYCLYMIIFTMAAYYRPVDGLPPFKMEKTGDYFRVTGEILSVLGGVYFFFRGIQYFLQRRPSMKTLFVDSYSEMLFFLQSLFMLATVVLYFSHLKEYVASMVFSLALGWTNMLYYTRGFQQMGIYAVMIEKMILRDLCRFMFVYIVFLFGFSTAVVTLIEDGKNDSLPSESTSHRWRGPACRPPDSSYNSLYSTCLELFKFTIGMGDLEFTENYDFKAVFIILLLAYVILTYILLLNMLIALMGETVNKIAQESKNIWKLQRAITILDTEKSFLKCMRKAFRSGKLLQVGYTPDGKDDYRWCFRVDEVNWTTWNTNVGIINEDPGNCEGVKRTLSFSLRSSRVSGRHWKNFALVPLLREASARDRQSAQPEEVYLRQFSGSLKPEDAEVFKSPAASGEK
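Cells expressing TRPV1 were dye-loaded with Fluo-8 and read kinetically: 10 s baseline, 3 min after compound (agonist portion), then 2 min after EC20 capsaicin (allosteric enhancer portion). Calcium-bound dye fluorescence at 480/520 nm.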
gsp ag – activates gsp, the McCune-Albright syndrome mutation; gsp mutant cells, cAMP HTRF, 30 min; control for the full effect not named in the record; Potency, µM (titrated, usually from 76.9 µM), for inactives: at the top dose activation (cAMP increase), hits mostly activators; 0.13% of 340,000 active; AID 624287; active = well fitted activation curve with a large enough effect; inconclusive = small, poorly fitted or top-dose-only effect, or another doubt; inactive = no such curve, though single readings can be large or run the other way; cell line not stated here;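 also: phosphodiesterase inhibitor Ro 20-1724 added with compounds to block cAMP breakdown; potency is read from the fitted curve at half-maximal effect; nearly all actives have a fitted effect of over 60% in size; about a fifth of the inactives were tested at one dose only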
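Cells stably selected in G418 were plated at 2000/well, grown 16-24 hr, then given compounds in DMSO with the PDE inhibitor […] (300 uM solution added) for 30 min at 37C; cAMP was read by HTRF.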
D2 PAM – positive allosteric modulators of human D2 dopamine receptor | P14416 | DiscoveRx D2 beta-arrestin cells, luminescence, 90 min; 100% = 57 uM dopamine signal | potentiation, % (no concentration beside the values) | 0.23% of 360,000 active; active = potentiation of 50% or more; inconclusive = 30% to 50%; inactive = 30% or less;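 also: compound concentration not given in the record; tested on top of an EC20 dose of dopamine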
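D2 cells co-treated with compound plus 50 nM dopamine (EC20) for 90 min at 37 deg C to detect potentiation. Beta-arrestin recruitment was read as enzyme-fragment luminescence after 1 h at ambient temperature. Full response was set by 57 uM dopamine.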
An asterisk follows results filed as active; ? = inconclusive; . = no result given; & = joins results of further samples; ! = not active in a repeat; [ ] = another dose, or the depositor's remark.

item	structure	Sfp PPTase inh	gsp antag	ClpP mod	Menin-MLL FL inh	TRPV1 PAM	gsp ag	D2 PAM
1	O=C(c1ccc(N2CCCC2=O)cc1)N1CCCCCC1	4.9%	3.2%	-5.7%	2.0	1.0	-0.8%	-19.9
2	COc1ccc(NC(=O)C2Cc3ccccc3CN2C(=O)c2ccccc2)cn1 (stereo not given)	14.7%	-16.5%	-3.5%	?	-18.7	3.5%	-8.7
3	Cc1cc(NC(=O)[C@H](C)NC(=O)c2ccco2)ccc1Br	-6.6%	4.0%	0.0%	-1.4	2.1	-1.8%	-6.1
4	COc1ccc(OCCSc2nc(N)cc(=O)[nH]2)cc1	-12.5%	-8.0%	-3.7%	-3.0	-1.6	7.9%	-10.0
5	COc1ccc2c(=O)cc(C(=O)O)oc2c1	6.0%	11.0%	.	1.1	-3.6	1.5%[15.4 µM]	-5.2
6	COC(=O)c1cc(Br)c(=O)n(CCc2ccc(F)cc2)c1	17.6%	4.3%	-4.1%	0.5	-8.0	10.1%	-10.4
7	COc1ccc(/C=N/Nc2cc(C)nc3ccc(Br)cc23)cc1	56.2µM*	0.2%	.	-22.4	5.7	-24.2%	-0.7
8	Cc1ccc(S(=O)(=O)/N=C(/c2ccc(F)cc2)N2CCCCC2)cc1	1.3%	10.8%	31.6µM*	-0.4	0.5	14.6%[15.4 µM]	-4.4
9	CCN(C(=O)COC(=O)c1ccc(F)c(S(=O)(=O)N2CCOCC2)c1)C1CCS(=O)(=O)C1 (stereo not given)	8.8%	1.8%	-2.8%	.	5.8	10.8%[15.4 µM]	-1.6
10	CCc1cc(=O)oc2c3c(cc(OCC(=O)NCc4cccnc4)c12)OC(C)(C)CC3	-4.7%	-11.4%	4.8%	18.8	-26.1	.	-24.8
11	CCc1ccccc1N1CC(C(=O)Nc2cc(C)on2)CC1=O (stereo not given)	8.8%	9.9%	.	-6.2	0.4	0.2%[15.4 µM]	5.0
12	CC(C)NCc1cc(Br)ccc1OCc1ccccc1	13.6%	15.9%	-1.3%	-2.3	-5.5	9.8%	-24.4

(next part)
item	structure	Sfp PPTase inh	gsp antag	ClpP mod	Menin-MLL FL inh	TRPV1 PAM	gsp ag	D2 PAM
13	O=C1CCC(C(=O)OCc2nnc(-c3ccc(Br)cc3)o2)=NN1	.	-5.4%	-5.2%	.	-0.8	-0.7%	-1.6
14	Cc1cccc(NC(=O)c2nc[nH]c2C(=O)NCC(=O)OCc2ccccc2)c1	8.0%	-3.0%	-3.5%	4.6	25.6	-0.4%	?
15	Cc1ccc(-n2nc3c(=O)n(CCCC(=O)NCCc4ccccc4C)nc(C)c3c2C)cc1	7.3%	-19.5%	-2.0%	0.2	26.2	19.7%	-13.9
16	NC(CS(=O)O)C(=O)O (stereo not given)	.	-1.1%	0.3%	.	.	.	-9.4
17	CSc1nc(Cl)c(Br)c(Nc2c[nH]c(=O)[nH]c2=O)n1	.	-6.2%	.	.	.	-63.6%[inhibitor]	-2.8
18	Cc1nnc(-c2cccc(Br)c2)c2cn(-c3cccc(Br)c3)nc12	-29.5%	?	1.4%	?	-0.6	?	-18.1
19	O=S(=O)(/N=C(/c1ccccc1)N1CCOCC1)c1ccc(Br)cc1	7.1%	17.8%	1.2%	.	14.6	?	1.7
20	CCNc1nc(NCC)nc(N(CC)C(N)=S)n1	-29.7%	2.1%	-1.6%	2.9	8.6	-1.6%[15.4 µM]	21.4
21	C=CCN1CN(S(=O)(=O)c2ccc(OC)cc2)c2nc3ccccc3nc21	0.9%	-4.8%	-18.0%	.	-3.9	-0.3%	-7.2
22	Cc1ccc(NNC(=S)Nc2ccc(C(C)C)cc2)c(C)c1	-8.7%	-20.3%	-2.4%	3.9	14.7	-5.5%	-17.5
23	COc1ccc(CCNc2nc(-c3ccco3)cc(C(F)(F)F)n2)cc1OC	11.2%	-22.5%	-12.3%	5.9	-17.9	-1.9%	3.4
24	O=C(O)CCC(=O)NCc1ccc(C(=O)O)cc1	-26.3%	-2.7%	-0.7%	1.7	14.3	-2.6%	19.5

(more compounds)
item	structure	Sfp PPTase inh	gsp antag	ClpP mod	Menin-MLL FL inh	TRPV1 PAM	gsp ag	D2 PAM
25	OCC(CO)(CO)N=Cc1c(O)ccc2ccccc12	-2.1%	-8.6%	-3.2%	2.4	4.3	20.4%	50.2*
26	CC(C)OCCCNc1nc(-c2ccccc2)nc2ccccc12	4.0%	?	-4.7%	-0.9	-5.6	9.8%	-3.3
27	CCS(=O)(=O)N1CCN(C2CCC(C)CC2)CC1 (stereo not given)	-22.7%	8.8%	-0.6%	-1.1	-6.4	-0.7%	4.8
28	O=C(CN1C(=O)c2ccccc2C1=O)Nc1cccc2cccnc12	3.5%	-6.2%	1.4%	1.9	?	-13.3%	-0.1
29	CS(=O)(=O)N(CC(=O)NC1CCCCC1)c1cccc(Cl)c1	2.4%	4.6%	1.6%	3.8	-7.3	0.3%	-1.3
30	Cc1nn(C)c(C)c1NC(=O)CSc1nc(-c2ccccc2F)nc2c1cnn2-c1ccccc1	.	25.7%	?	.	.	?	-1.4
31	Cc1ccc(-c2cc(C(=O)N3CCC(C)CC3)c3ccccc3n2)cc1	-4.7%	?	3.7%	.	1.1	-40.3%[inhibitor]	-1.7
32	Cc1c(-n2cccc2C=O)cccc1[N+](=O)[O-]	17.9%	-1.2%	.	0.3	7.0	-2.9%[15.4 µM]	-2.7
33	CC(OC(=O)Cn1cc(C(F)(F)F)ccc1=O)C(=O)NC(C)c1ccc(Cl)cc1Cl (stereo not given)	.	?	0.7%	.	4.9	2.4%	-3.0
34	C[C@@H]1NC(=O)N(CCCn2ccnc2)C1=O	15.4%	10.0%	-0.8%	-3.8	15.7	-28.5%	-5.2
35	COc1ccccc1NC(=O)c1ccc(NC(=O)COC(=O)c2cccnc2Cl)cc1	.	-16.3%	-1.8%	.	.	-30.8%[inhibitor]	-7.3
36	O=C(CN1C(=O)CCC1=O)Nc1nc(-c2cccs2)cs1	7.7%	-8.9%	-0.1%	0.9	3.4	14.2%	-11.9

Following part:
item	structure	Sfp PPTase inh	gsp antag	ClpP mod	Menin-MLL FL inh	TRPV1 PAM	gsp ag	D2 PAM
37	O=C(Nc1ccc(Cl)cc1)N1CCCN(Cc2ccc(F)cc2)C1	3.8%	14.7%	-2.5%	2.4	-13.2	-11.9%	-12.3
38	CCOC(=O)c1cnc2ccc(C(=O)OC)cc2c1NCCc1ccc(OC)c(OC)c1	-13.9%	24.4%	-1.2%	5.3	-7.3	-7.6%[15.4 µM]	-7.6
39	CCN1CCN(Cc2nnc(-c3ccccc3)o2)CC1	3.2%	2.0%	-2.4%	-0.1	4.6	9.7%	-5.7
40	CN(C)C(C)(C)C#CCC(c1ccccc1)c1ccccc1	-2.1%	11.2%	-0.8%	-0.3	-7.2	5.2%	-36.3
41	Cc1cccc(C(=O)N2CCCC(CCC(=O)N3CCN(c4ccccn4)CC3)C2)c1C (stereo not given)	-1.2%	-16.6%	4.0%	.	-16.5	21.8%	-3.2
42	COc1ccc(C(=O)NCc2nnc(SCC(=O)NCc3ccco3)o2)cc1	-4.1%	5.1%	0.0%	-0.6	-9.3	?	-1.0
43	O=C(O)c1cc(-c2ccco2)nc2ccccc12	35.5µM*	5.8%	4.1%	4.1&-1.9	8.8	20.4%	-1.5
44	O=C(CCCCCNC(=O)c1ccccc1)N/N=C/c1ccc(F)cc1	6.2%	-2.7%	.	-0.5	5.3	28.0%	-5.0
45	O=C(O)c1cccc(-n2nnnc2SCc2ccccc2Cl)c1	18.6%	-9.3%	-0.1%	0.7	3.2	-0.8%	-1.8
46	CC(NCCC(c1ccccc1)c1ccccc1)c1ccccc1 (stereo not given)	25.1µM*!	6.8%	0.3%	-0.5&0.4	-16.7	.	-25.3
47	CO/N=C/c1cccn1-c1nccc(OC)c1C#N	8.0%	1.4%	.	-4.9	-3.9	-12.5%	2.6
48	CCC(CO)Oc1cc(NCc2ccc(O)cc2)c2ncn(C(C)C)c2c1 (stereo not given)	.	10.0%	-1.3%	.	.	21.7%	-5.8

More structures.
item	structure	Sfp PPTase inh	gsp antag	ClpP mod	Menin-MLL FL inh	TRPV1 PAM	gsp ag	D2 PAM
49	CCOC(=O)CC1C(=O)NCCN1c1nc2c(C)cccn2c(=O)c1/C=C1\SC(=S)N(CC(C)C)C1=O (stereo not given)	-24.2%	.	.	?	-4.6	.	.
50	CCn1c(SCc2nc3ccccc3c(=O)[nH]2)nnc1-c1ccncc1	14.0%	13.2%	-3.1%	3.0	21.9	7.6%	-16.8
51	COc1cccc(-c2nc(C=O)cs2)c1	-3.1%	10.0%	28.9%	3.6	17.4	?	-6.3
52	COc1cccc2cc(/C(C)=N/Nc3nc(-c4cc(C)ccc4C)cs3)c(=O)oc12	?	-10.4%	2.1%	3.8	8.5	-7.0%	-14.7
53	CCOC(=O)C1CCCN(S(=O)(=O)c2cc3c4c(c2)CCN4C(=O)CC3)C1 (stereo not given)	.	-4.4%	-4.2%	.	-12.2	6.6%[15.4 µM]	-2.0
54	O=C(COc1cccc2c1CCN(Cc1ccccc1)C2=O)NCc1ccco1	14.0%	3.1%	-6.1%	12.7	-0.3	-22.7%	0.2
55	Cc1sc2ncnc(SCC(=O)c3cccs3)c2c1C	-1.6%	-4.2%	-0.9%	4.0	2.2	36.6%	6.6
56	Cc1ccc(NC(=O)C2CCN(S(=O)(=O)c3ccc(C(C)(C)C)cc3)CC2)cc1S(=O)(=O)N1CCOCC1	.	-11.9%	0.0%	.	.	-3.1%	-1.6
57	COc1nc(C)cc(C)c1S(=O)(=O)c1ccc(Cl)cc1	-2.5%	-3.0%	0.0%	-3.6	3.1	8.3%	-14.2
58	C[C@H](NC(=O)C1CCN(S(=O)(=O)c2ccccc2)CC1)C(=O)NCc1ccco1	12.1%	6.2%	-3.0%	.	-2.6	2.7%	-30.5
59	O=C(Nc1ccc2c(c1)OCO2)C1CCCCN1S(=O)(=O)c1ccccc1 (stereo not given)	7.1%	0.7%	-0.3%	1.5	-22.8	-36.2%[inhibitor]	-3.9
